Screening results as filed in PubChem BioAssay.
ClpP mod – qHTS Assay for Activators of ClpP; ATP-dependent Clp protease proteolytic subunit (Bacillus subtilis (strain 168)), P80244; purified B. subtilis ClpP, FRET peptide cleavage, 20 min; Potency, µM (top dose mostly 57.5 µM), inactives show at the top dose activity change, negative = active; 340,000 compounds, 1.9% hits; active = well fitted falling curve with a large enough effect; inconclusive = small, poorly fitted or top-dose-only effect; inactive = no such curve, though single readings can be large or run the other way; also: the source files actives as falling curves though it sought activators and does not explain the sign; nearly all actives have a fitted effect of over 65% in size; many hits overshoot -100%
Target sequence (P80244 whole entry, looked up): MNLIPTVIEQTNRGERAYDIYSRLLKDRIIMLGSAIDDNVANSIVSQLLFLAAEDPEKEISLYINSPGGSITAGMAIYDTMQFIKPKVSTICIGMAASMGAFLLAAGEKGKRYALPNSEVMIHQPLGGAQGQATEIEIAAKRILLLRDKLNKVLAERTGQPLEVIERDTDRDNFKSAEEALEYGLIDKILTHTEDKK
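Purified B. subtilis ClpP, 10 microg/mL final in Tris/HCl pH8 with KCl, BSA, glycerol and Tween-20, cleaved an Abz/nitrotyrosine-quenched decapeptide. Fluorescence (ex 320, em 430) was read at 0 and 20 min at room temperature. Delta was normalized to 5.8 microM ADEP and DMSO/no-enzyme controls.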
PINK1 expr mod – modulators of PINK1 expression | Potency, µM (top dose mostly 76.6 µM), without a hit: top-dose activation (PINK1 increase), most hits filed as activators | PINK1 immunofluorescence, high-content cytometry, 24 h | AID 624263 | 410,000 compounds, 0.2% hits; active = well fitted activation curve with a large enough effect; inconclusive = small, poorly fitted or top-dose-only effect; inactive = flat fitted curve, though single readings scatter; cell line not stated here;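 also: % of control where 0% means no effect; nearly all actives have a fitted effect of over 65% in size; a mitochondrial uncoupler was the plate control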
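Fluorescence from anti-PINK1 antibody, together with nuclear and cell stains, was scanned on a laser-scanning cytometer. Before staining, stable-line cells were incubated 24 hours with compounds at 5 concentrations; primary antibody 12 h at 10 degrees C.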
An asterisk follows results filed as active; ? = inconclusive. Potency is read from the fitted curve at half-maximal effect. Not all compounds are listed, so the mix of outcomes need not match the whole.

Compound,ClpP mod,PINK1 expr mod
COc1ccccc1C(=O)Nc1c(C(=O)Nc2ccc(C)cc2)oc2ccccc12,-2.0%,0.9%
O=C1CC(c2nc3ccccc3n2CCCOc2ccccc2)CN1c1ccc(F)cc1 (stereo not given),-0.8%,3.4%
COC(=O)c1nc(N2CCN(S(=O)(=O)c3ccc(C)cc3)CC2)c2ccccc2n1,-5.5%,-0.5%
Cc1cccc(C)c1-n1nnnc1C1c2ccccc2C(=O)N1CCOc1ccccc1 (stereo not given),-2.1%,0.4%
CC(=O)c1ccc(Nc2cc(C)nc3nc(Cc4ccc(Cl)cc4)nn23)cc1,-10.8%,3.3%
O=C(Nc1ccc(F)cc1F)N1CCc2c(sc3c2CCCC3)C1c1ccc(F)cc1 (stereo not given),-1.4%,0.1%
COc1ccc(-c2csc3nc(-c4ccc(F)cc4)oc(=O)c23)cc1OC,0.0%,4.3%
CCCOc1ccc(C(=O)Nc2nonc2-c2ccc(OCC)cc2)cc1,-3.4%,0.8%
COCCNC(=O)c1cnc2sc(N3CCC(C)CC3)nn2c1=O,4.4%,3.2%
Cc1ccc(NC(c2ccc(Cl)cc2)c2nnc(-c3cccc(F)c3)o2)cc1C (stereo not given),-2.3%,-1.3%
Cc1cc(F)ccc1NCc1ccccc1-c1nnc(-c2ccccc2Cl)o1,-1.6%,2.5%
CC1CCN(S(=O)(=O)c2ccc3nc(N4CCN(c5ccc(F)cc5)CC4)ccc3c2)CC1,-1.0%,-1.1%
CC1CCCN(Cc2c(O)ccc3c(=O)c(-c4ccc(Cl)cc4)c(C(F)(F)F)oc23)C1 (stereo not given),-2.0%,1.7%
CCOC(=O)c1nnc2c(-c3ccc(OC)cc3)c(C)nn2c1N,0.0%,1.1%
Cc1ccc(NC(=O)/C=C/c2ccc(C)o2)c(C)c1,0.7%,0.1%
CCOC(=O)c1ccc(N2C(=O)c3n[nH]c(C)c3C2c2ccccc2OC)cc1 (stereo not given),-2.2%,-0.5%
O=C(c1ccc(Br)cc1)N1CCC(c2nc3ccccc3s2)CC1,-0.6%,-0.8%
Oc1c(C(c2ccc(F)cc2)N2CCOCC2)sc2nc(-c3ccco3)nn12 (stereo not given),1.3%,2.9%
O=[N+]([O-])c1ccc(Nc2nc(NCCN3CCOCC3)nc(Nc3ccc(I)cc3)n2)cc1,-0.3%,1.1%
Cc1ccc(C(=O)N(Cc2ccco2)Cc2sccc2C)cc1,-1.0%,-0.3%
Cc1ccc(NC(=O)/C=C\C(=O)N(c2ccc(C(C)C)cc2)C(C(=O)NCc2ccco2)c2ccc(Cl)cc2)cc1 (stereo not given),-1.4%,1.3%
CCOc1ccc(-c2nonc2NC(=O)c2oc3ccc(CC)cc3c2C)cc1,?,0.1%
Cc1ccc(OCC(=O)OCc2cc(=O)n3nc(C4CC4)sc3n2)cc1C,-3.9%,-0.4%
COCC(=O)N1c2nc(C(C)C)nn2C2(CCCCC2)[C@@H]2CCCC[C@@H]21,-2.2%,0.2%
O=C(Nc1cc(Cl)cc(Cl)c1)c1cc(S(=O)(=O)NC2CCCC2)ccc1F,-2.3%,6.5%
COc1ccc(S(=O)(=O)N2CCC[C@@H]2C(=O)N2CCC[C@H]2C(=O)NCc2ccncc2)cc1C,-2.1%,-0.5%
O=C(NCc1ccccc1Cl)c1ccc(Cn2c(SCc3ccccc3)nc3cccnc32)cc1,5.1%,2.2%
COc1ccc(-n2nc(C(=O)N3CCCCC3)c3c4ccccc4n(C)c3c2=O)cc1Cl,45.1%,1.7%
COCC(=O)N1CCc2cc(OC)c(OC)cc2C1COc1ccc2c(C)cc(=O)oc2c1 (stereo not given),?,2.4%
Cc1ccc(C(=O)c2sc(Nc3ccc(F)cc3)nc2N)c(C)c1,-3.2%,-1.1%
COc1cc(OC)cc(C(=O)Nc2ccc(-c3nc4ccccc4s3)c(C)c2)c1,-20.9%,1.3%
COc1ccccc1NC(=O)CSc1nnc(-c2ccccc2C)o1,-1.5%,4.1%
CCOc1ccc(Cn2nnc(C(=O)Nc3ccc(Cl)cc3)c2N)cc1,-0.8%,0.1%
Cc1ccc(NC(=O)c2cc(S(=O)(=O)N3CCCCC3)c[nH]2)cc1N(C)C,4.6%,0.8%
Cc1ccc(C2C=C(c3ccccc3)Nc3nc(NS(C)(=O)=O)nn32)cc1 (stereo not given),4.6%,1.2%
COc1ccc(OCC(=O)Nc2cc(-c3cccc(Cl)c3)nn2-c2ccccc2)cc1,-27.7%,6.6%
Cc1cccc(OCC(=O)Nc2ccc3oc(-c4ccccc4F)nc3c2)c1,4.5%,9.1%
CCc1c(C)nc(SCc2nc(-c3ccccc3)no2)[nH]c1=O,2.0%,3.4%
Cc1ccc(Nc2sc(C(=O)c3ccccc3)c(N)c2S(=O)(=O)c2ccccc2)cc1Cl,-4.8%,-0.2%
Cc1ccc(NC(=O)C(=O)NCC(c2cccnc2)N2CCc3ccccc3C2)cc1 (stereo not given),0.2%,-0.5%

Already shown: an excerpt of the list.
Compound,ClpP mod,PINK1 expr mod
Cc1ccc(NC(=O)c2cc(S(=O)(=O)N3CCCCC3)c[nH]2)cc1N(C)C,4.6%,0.8%
Cc1ccc(C2C=C(c3ccccc3)Nc3nc(NS(C)(=O)=O)nn32)cc1 (stereo not given),4.6%,1.2%
COc1ccc(OCC(=O)Nc2cc(-c3cccc(Cl)c3)nn2-c2ccccc2)cc1,-27.7%,6.6%
Cc1cccc(OCC(=O)Nc2ccc3oc(-c4ccccc4F)nc3c2)c1,4.5%,9.1%
CCc1c(C)nc(SCc2nc(-c3ccccc3)no2)[nH]c1=O,2.0%,3.4%
Cc1ccc(Nc2sc(C(=O)c3ccccc3)c(N)c2S(=O)(=O)c2ccccc2)cc1Cl,-4.8%,-0.2%
Cc1ccc(NC(=O)C(=O)NCC(c2cccnc2)N2CCc3ccccc3C2)cc1 (stereo not given),0.2%,-0.5%

Next records.
Compound,ClpP mod,PINK1 expr mod
O=C(CSc1nc2ncccc2[nH]1)Nc1cc(F)ccc1F,-2.6%,-2.0%
CCc1cccc(NC(=O)CCn2c(=O)c3cccn3c3cccnc32)c1,-13.7%,-0.2%
Cc1ccc(NC(=O)CSc2nnc(NC(=O)NC3CCCCC3)s2)cc1,-1.1%,3.8%
CCN1CCc2c(sc(NC(=S)NC(=O)c3cccc(F)c3)c2C(N)=O)C1,?,9.2%
COc1ccc(C(=O)n2nc(-c3ccco3)nc2NCc2cccs2)cc1,-5.1%,2.9%
Cn1nnnc1SCCCNCc1cccc(OCc2ccccc2Cl)c1,0.6%,0.6%
Cc1ccc(/C=C/c2onc(C)c2S(=O)(=O)N2CCC(C(=O)NCc3ccc(OC(C)C)cc3)CC2)cc1,?,1.4%
COC(=O)c1c(NC(=O)/C(C#N)=C/c2ccccc2)sc2c1C(C(=O)OC)CC2 (stereo not given),-0.2%,?
Cc1nc2c(-c3ccccc3)c(C)nn2c(C)c1CCC(=O)NCc1ccccc1,1.7%,0.8%
Cc1cccc(NC(=O)CS(=O)(=O)c2cccc3nsnc23)c1,-0.5%,-3.3%
Cc1cc(NC(=O)c2cccnc2)cc(-c2nc3cc(Cl)ccc3o2)c1O,0.6%,2.7%
COc1ccc(Cl)cc1C(=O)Nc1c2c(nn1-c1ccc(Cl)cc1)CS(=O)(=O)C2,-0.4%,-5.5%
CC(=O)c1ccc(N2C(=O)N(CC(=O)c3ccc(C)cc3)c3ccccc3S2(=O)=O)cc1,0.1%,1.2%
COc1ccc(-c2nc3ccccc3n3c(-c4cccc(C)c4)c4c(=O)n(C)c(=O)n(C)c4c23)cc1OC,-0.7%,0.2%
CCOC(=O)c1cc(-c2ccccc2)n(CCC(=O)NC2CCCCC2)c1C,2.8%,1.6%
Cc1ccccc1CCNC(=O)c1ccc2c(c1)nc1n2CCC(C)C1 (stereo not given),-1.1%,1.0%

(more compounds)
molecule,ClpP mod,PINK1 expr mod
Cc1nn(C)c2c1c(C(F)(F)F)cc(=O)n2C(C)C(=O)Nc1ccccc1F (stereo not given),?,1.8%
COc1ccccc1C(=O)Nc1cc2c(cc1N1CCCCC1)n(C)c(=O)n2C,80.3%,0.9%
Cc1ccc(C)c(NC(=O)CCn2nc(C)c3c(C)n(-c4ccccc4)nc3c2=O)c1,0.2%,-0.7%
Cc1nc(-c2ccccc2)sc1CCNC(=O)C(=O)Nc1ccc(F)c(Cl)c1,4.9%,1.9%
Cc1cc(OCCn2c(C3CC(=O)N(Cc4ccc(F)cc4)C3)nc3ccccc32)ccc1Cl (stereo not given),-7.4%,?
O=C(Nc1ccc(C(=O)N2CCCCC2)cc1)c1nsc2ccccc12,0.9%,-0.7%
CCOC(=O)c1c(C)[nH]c(C)c1S(=O)(=O)N1CCCC(C(=O)NCc2ccc(N(C)C)cc2)C1 (stereo not given),-2.1%,1.4%
CC(=O)N1CCc2cc(CNC(=O)Nc3cc(Cl)ccc3C)ccc21,-2.0%,1.7%
COc1ccc(-n2ncc(C(=O)N3CCN(c4ccccn4)CC3)c2C2CCN(C(=O)OC(C)(C)C)CC2)cc1,-5.6%,-0.4%
NC(=O)C1CCN(c2ncnc3c2cnn3-c2ccccc2)CC1,-3.6%,-1.3%
COc1cccc(CNC(=O)c2ccc(-n3c(C)cc4c3CCC(C)C4)cc2)c1 (stereo not given),-3.4%,1.5%
CCc1ccc(NC(=O)CCc2c(C)nn(-c3ccc(N4CCCC4)nn3)c2C)cc1,-4.3%,1.1%
CC(C)c1ccc(C2c3c(oc4ccc(Cl)cc4c3=O)C(=O)N2CCCN2CCOCC2)cc1 (stereo not given),-7.6%,-0.6%
CCOc1ccc(NC(=O)c2c(Nc3ccccc3C)sc(C(=O)c3ccc(Cl)cc3)c2N)cc1,-0.8%,0.3%
CCOCCc1nn2c(=O)cc(COC(=O)c3ccccc3NC(=O)c3cccs3)nc2s1,-28.6%,0.2%
CCOc1ccc(N(CC)S(=O)(=O)N2CCCC(C(=O)Nc3cc(Cl)ccc3OC)C2)cc1 (stereo not given),-0.3%,-0.9%
COC[C@@H]1CCCN1c1ccc2c(c1)O[C@@H](COCc1ccccc1)CN([C@H](C)c1ccccc1)S2(=O)=O,?,3.2%
CCCCOc1ccc(C(=O)Nc2nnc3n2CCS3)cc1,-2.8%,0.3%
CCCOc1ccc(-c2nc(N3CCCCC3)c3ccccc3n2)cc1,14.4%,0.8%
Cc1cccc(CNC(=O)CCCn2c(=O)c3cccn3c3ccc(F)cc32)c1,0.9%,1.2%
COc1cccc(CNC(=O)N2CCc3c(sc4c3CCCC4)C2c2ccc(F)cc2)c1 (stereo not given),-2.0%,1.1%
CCOC(=O)[C@]12CCCC=C1N(Cc1ccc3c(c1)OCO3)C(=O)[C@H](CC(=O)N1CCN(C(=O)C3CC3)CC1)C2,-0.1%,-0.5%
CCN(CC)S(=O)(=O)c1ccc2c(c1)N(CC(=O)Nc1cccc(C(C)=O)c1)C(=O)CO2,-0.4%,3.1%
CC1=C(C(=O)NCc2ccccc2C)C2(CCCCCC2)OC1=O,2.4%,-0.3%
COc1ccccc1OC(C)C(=O)Nc1cccc(-c2nc3ccccc3s2)c1 (stereo not given),-17.6%,-1.3%
COc1cc(NS(=O)(=O)c2cc3c(cc2C)n(C)c(=O)c(=O)n3C)cc(OC)c1,-4.7%,3.7%
CCOc1ccc(NC(=O)C2CCN(c3nnc(C)c4c(C)n(-c5ccccc5)nc34)CC2)cc1,-16.8%,-0.1%
CCCCN(Cc1ccco1)C(=O)Cn1ncc2c([nH]c3ccccc32)c1=O,-25.0%,1.0%
CCC(Cn1nnc2ccccc2c1=O)NC(=O)Nc1ccc(C)c(C)c1 (stereo not given),1.6%,-1.1%
CCOc1ccc(C(=O)c2cn(CC(=O)Nc3ccc(OC)cc3)c3cc4c(cc3c2=O)OCO4)cc1,-1.2%,0.8%
Cc1cccc(NC(=O)c2c(C)oc3ncnc(N4CCCCC4)c23)c1C,3.2%,14.2%
CCC(Oc1ccccc1F)C(=O)Nc1c(C(=O)c2ccccc2)oc2ccccc12 (stereo not given),5.0%,0.5%
CCC1CCCCN1S(=O)(=O)c1cc2c(cc1C)NC(=O)CO2 (stereo not given),-15.2%,-0.6%
CCOC(=O)c1ccc(NC(=O)c2nsc3ccccc23)cc1,16.8%,-0.4%
COc1ccc(NC(=O)C(=O)NCCc2csc(-c3ccc(Cl)cc3)n2)cc1,-3.1%,2.1%
O=C(CSC1=Nc2ccccc2N=C(c2ccc(F)cc2)C1)Nc1ccccc1,2.6%,8.4%
COc1ccc(N2C(=O)C(CC(=O)Nc3ccccc3)N(CCC3=CCCCC3)C2=O)cc1 (stereo not given),0.5%,3.3%
